Assay outcomes deposited in PubChem by several laboratories.
BJeLR viability – kills HRASV12-expressing BJeLR cells. BJeLR (HRASV12) viability, CellTiter-Glo ATP luminescence, 48 h; reference of the scale not given here. inhibition, % (no concentration beside the values). 300,000 compounds, 0.17% hits;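 active means replicate mean above 50%; inconclusive means above 50% but judged a plate artefact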;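 further: 50 nL library stock added to about 25 µL; numbers are from one replicate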
PrP UTR inh – suppresses PrP 5' UTR mRNA reporter expression. AID 488862. cell-based PrP 5' UTR mRNA reporter, plate reader. 340,000 compounds, 0.35% hits. inhibition, % (test concentration not listed);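 active means every replicate at 50% or more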;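 further: 0 = median of the neutral control wells; tested in H4 reporter cells; numbers are from one replicate; inactives centre near -14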
ugtP null kill – compounds lethal to S. aureus RN4220 ugtP deletion mutant; OD600 growth, 16 h; some inactives read as strong as hits; 330,000 compounds, 0.54% hits; growth inhibition, % (no concentration beside the values);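 active means z-score under -3 and OD600 up to 0.15 on both plates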;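 further: plate controls were untreated wells for no effect and antibiotic for full effect; wells of about 80 µL received 100 nL stock; the first replicate is given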
Mtb hypoxia inh – reduces hypoxia-regulated biosensor signal in M. tuberculosis; M. tuberculosis hypoxia-regulated fluorescent reporter, fluorescence; fluorescence inhibition, % (concentration not given with the values); 300,000 compounds, 0.1% hits; AID 1159583;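 active means 35 to 45% if threefold the growth effect, above 45% if 1.5-fold the growth effect; inactive means the rest, general growth blockers included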;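 further: wells of about 50 µL received 100 nL stock; 0% = vehicle wells and 100% = reference inhibitor wells; whole bacteria with a GFP reporter of the hypoxia response; strong numbers were not always called active; many hits fall short of the cut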
Bead autofluor – compound fluorescence in toxin protease inhibitor counterscreen; AID 624483; fluorescence intensity (concentration not given with the values); compound autofluorescence counterscreen, microsphere flow cytometry; active compounds read high; 360,000 compounds, 3.1% hits;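 active means at least 3 SD above the mean of all compounds, about 16000 in these data; inconclusive means too few beads counted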;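 further: 100 nL of 1 mM stock went into each well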
RN4220 kill – S. aureus RN4220 growth inhibition | OD600, 16 h | inhibition, % (no concentration beside the values) | 330,000 compounds, 0.33% hits;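 active means z-score of -3 or lower and OD600 up to 0.18 on both plates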;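 further: plate controls were untreated cells for no effect and reference antibiotic for full effect; stock transfer was 100 nL into about 80 µL; one replicate is shown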
Mtb hypoxia inh growth – second read-out of Mtb hypoxia inh, no call of its own (marks repeat the call); growth inhibition, %; measured here: M. tuberculosis growth (absorbance);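 0% = vehicle and 100% = reference antibiotic; read after six days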
The depositor's hits bear a star; u = inconclusive; x = no result given.

The opening six entries as a preview:
SMILES | BJeLR viability | PrP UTR inh | ugtP null kill | Mtb hypoxia inh | Mtb hypoxia inh growth | Bead autofluor | RN4220 kill
COC(=O)[C@@H]1CC[C@@](C)(c2ccc(OC)cc2)C1(C)C | 5 | -7 | x | x | x | 4096 | x
CC(C)C(=O)Nc1ccc(NC(=O)c2ccco2)cn1 | 3 | -26 | -2 | 9 | 13 | 4299 | -2.3
CC1CCCC(NC(=O)COC(=O)c2ccc([N+](=O)[O-])s2)C1C (stereo unspecified) | x | -21 | -1 | 7 | 1 | 8091 | 13
CC(=O)Nc1ccc2nc(NC(=O)c3cccnc3)sc2c1 | 1 | -25 | -3 | 7 | 3 | 3287 | 5.2
COc1ccc(-c2cn[nH]c2-c2ccc(OCc3ccccc3)cc2O)cc1 | -9 | -1 | 8 | 0 | -2 | 3626 | 1.8
CCOc1ccc(-c2c(C(=O)N/N=C/c3ccco3)nnn2-c2nonc2N)cc1 | 0 | -15 | x | x | x | 5523 | x

The listing, previewed entries included:
SMILES | BJeLR viability | PrP UTR inh | ugtP null kill | Mtb hypoxia inh | Mtb hypoxia inh growth | Bead autofluor | RN4220 kill
COC(=O)[C@@H]1CC[C@@](C)(c2ccc(OC)cc2)C1(C)C | 5 | -7 | x | x | x | 4096 | x
CC(C)C(=O)Nc1ccc(NC(=O)c2ccco2)cn1 | 3 | -26 | -2 | 9 | 13 | 4299 | -2.3
CC1CCCC(NC(=O)COC(=O)c2ccc([N+](=O)[O-])s2)C1C (stereo unspecified) | x | -21 | -1 | 7 | 1 | 8091 | 13
CC(=O)Nc1ccc2nc(NC(=O)c3cccnc3)sc2c1 | 1 | -25 | -3 | 7 | 3 | 3287 | 5.2
COc1ccc(-c2cn[nH]c2-c2ccc(OCc3ccccc3)cc2O)cc1 | -9 | -1 | 8 | 0 | -2 | 3626 | 1.8
CCOc1ccc(-c2c(C(=O)N/N=C/c3ccco3)nnn2-c2nonc2N)cc1 | 0 | -15 | x | x | x | 5523 | x
O=C(NCCc1ccc(Cl)cc1)C1CC(=O)N(CCc2ccccc2)C1 (stereo unspecified) | 9 | -17 | 7 | 6 | -6 | 5367 | -0.9
CN(c1cccc(Cl)c1)S(=O)(=O)c1cccc(C(=O)Nc2ccc3c(c2)CCC3)c1 | -25 | -20 | -12 | -9 | -4 | 2476 | -4.4
CCCN1CCC(NC(=S)Nc2ccc(C(=O)OCC)cc2)CC1 | -1 | -7 | -3 | 8 | 3 | 2715 | -0.3
COc1ccc(/C=N/NC(=O)CN(C2=NS(=O)(=O)c3ccccc32)c2ccccc2)cc1 | 2 | -20 | x | x | x | 2712 | x
C=C(C)c1cccc(C(C)(C)NC(=O)Nc2cccnc2)c1 | -4 | -11 | 1 | -2 | 0 | 3788 | 3.1
COc1ccc(C(CNC(=O)CCNS(=O)(=O)c2ccc(Br)cc2)N2CCCC2)cc1 (stereo unspecified) | x | -29 | 3 | -1 | 2 | 6749 | 1.3
Cc1ccc(S(=O)(=O)Cc2ccc(C(=O)O)o2)cc1 | -2 | -25 | 5 | 14 | 7 | 10422 | 5.5
COC(=O)C1=C(C(=O)OC)C(c2cc(Cl)ccc2O)c2sc(=O)[nH]c2S1 (stereo unspecified) | 3 | -23 | 7 | 19 | 0 | 7916 | 15
CCCOc1ccc(-c2c(C(=O)NN=C(C)c3ccncc3)nnn2-c2nonc2N)cc1 | x | x | 6 | 13 | 7 | x | 1.3
CCOc1ccccc1OCC(=O)OCC(=O)NNC(=O)c1ccc([N+](=O)[O-])cc1 | -4 | -8 | 7 | -2 | 2 | 6096 | 1.2
S=C(NN=C(C1CC1)C1CC1)Nc1ccccc1 | 21 | -19 | 6 | 2 | 3 | 17259* | 4.9
Cc1c(Br)c(C(F)(F)F)nn1CC(=O)NCc1ccco1 | 4 | -37 | -5 | 6 | 13 | 3960 | 1.2
CC(C)C[C@H](NC(=O)c1nc[nH]c1C(=O)NCc1ccc(CNC(=O)OC(C)(C)C)cc1)C(=O)OC(C)(C)C | -7 | 5 | x | x | x | 4453 | x
CC(C)[C@H](NC(=O)c1ccccc1)C(=O)OCC(=O)Nc1ccc(S(=O)(=O)N2CCOCC2)cc1 | x | -7 | 4 | 7 | 12 | 3929 | 1.7
O=C(NC(=S)Nc1ccc(Br)cc1)C1CCCCC1 | -1 | -32 | 18 | x | x | 5290 | 0.0
CCCC(=NNC(=O)c1ccc(CSc2nncn2C)cc1)c1ccccc1 | x | x | 3 | 9 | 2 | x | 3.4
COc1ccccc1-n1c(-c2ccco2)n[nH]c1=S | -2 | -17 | 13 | 5 | -5 | 3592 | 1.5
O=C(NCCc1ccccn1)c1cccc(S(=O)(=O)N2CCc3ccccc32)c1 | 4 | -22 | 3 | -2 | 14 | 6082 | -1.5
Cc1cccnc1NC(=O)Cn1nc(C)c([N+](=O)[O-])c1C | 1 | -6 | -4 | x | x | 2478 | -1.8

Further entries follow.
SMILES | BJeLR viability | PrP UTR inh | ugtP null kill | Mtb hypoxia inh | Mtb hypoxia inh growth | Bead autofluor | RN4220 kill
O=S(=O)(/N=S1/CC=CCN1S(=O)(=O)c1ccccc1)c1ccccc1 (stereo unspecified) | 5 | 4 | x | x | x | 2442 | x
Nc1nc2n(n1)C(c1ccco1)CC(c1ccc(F)cc1)N2 (stereo unspecified) | -3 | -10 | 7 | x | x | 6230 | 4.1
CCc1ccccc1N1C(=O)c2cccc3c(N4CCOCC4)c([N+](=O)[O-])cc(c23)C1=O | -8 | -12 | -15 | -2 | 7 | 24654* | 11
COc1cc(C2C3C(=O)N(Cc4ccccc4)C(=O)C3ON2c2ccccc2)cc(OC)c1O (stereo unspecified) | 3 | -12 | 0 | x | x | 4056 | 3.7
Cc1ccc(Nc2nnc(SCC(=O)Nc3ccc(S(=O)(=O)N4CCOCC4)cc3)s2)cc1 | -8 | -17 | -7 | 14 | 4 | 22187* | 1.1
COc1ccc(C)cc1-n1nnnc1SC(C)C(=O)NC1CCCC1 (stereo unspecified) | x | -22 | 5 | 25* | 62* | 4264 | -0.4
N#Cc1cc2c(nc1SCc1ccncc1)CCC2 | -3 | -39 | 14 | 12 | 1 | 10437 | 5.2
O=C(Nc1cccc(OCC(=O)N2CCOCC2)c1)C1CCCCC1 | -2 | -15 | 1 | -1 | -3 | 23579* | 2.6
CCC(=NNc1ccc(Cl)cc1)c1cnnc(SC)n1 | x | x | -2 | 7 | 11 | x | 2.5
Cc1ccc(/C=N\NC(=O)Cn2nnc3ccccc32)o1 | -4 | 9 | x | x | x | 9850 | x
CCc1cc(=O)oc2c(CN3CCN(C)CC3)c(O)c(Cl)cc12 | -3 | -8 | 4 | -3 | 2 | 15420 | 1.9
CC(C)N(C(=O)[C@H]1C[C@H](CC(=O)NCc2cccc(C(F)(F)F)c2)C(=O)N2CCc3c([nH]c4cc(-c5ccco5)ccc34)[C@]12C)C(C)C | x | -13 | -5 | -8 | 7 | 4063 | -5.2
CCOc1ccc(-n2c(SCC(=O)O)nc3sc4c(c3c2=O)CCCC4)cc1 | 7 | -12 | 19 | 8 | 2 | x | 0.1
Cc1cccc(-n2c(-c3ccc([N+](=O)[O-])cc3)nc3ccccc3c2=O)c1 | 1 | -12 | -6 | 1 | 4 | 2462 | 5.1
COC(=O)c1ccc(/C=N/NC(=O)C(=O)NCc2ccccc2)cc1 | -2 | -22 | x | x | x | 4239 | x
CCCCn1c(N)c(N(CC(C)C)C(=O)c2cc(Cl)nc3ccccc23)c(=O)[nH]c1=O | -3 | -23 | 3 | 10 | 4 | 5218 | 3.4
CCOC(=O)C=Cc1ccccc1S(=O)(=O)NC(C)(C)C | x | x | -10 | 12 | 10 | x | 5.9
COCCN(CC(=O)Nc1ccccc1C(F)(F)F)C(=O)/C=C/c1cc(Cl)c2c(c1)OCCO2 | x | 0 | -3 | 1 | 7 | 4296 | 4.6
CSc1nc(-c2ccccc2)nc(NC(=O)C(C)C)c1C(C)=O | -9 | -30 | 16 | 2 | 0 | 4375 | 5.9
Cc1cc(C(=O)CSc2nnc(-c3ccc(Cl)cc3)n2C)c(C)n1CC1CCCO1 (stereo unspecified) | 3 | -19 | -4 | 2 | 10 | 22941* | -3.0
CCc1ccc(S(=O)(=O)NCc2csc(C)n2)s1 | 1 | 0 | 3 | 14 | 10 | 4930 | 6.8
CCc1cc2cc(C(=O)N3CCN(c4ccccc4)CC3)sc2s1 | -5 | -24 | -4 | 4 | 1 | 3034 | 4.6
Cc1ccc(OC(=O)c2cccc(S(=O)(=O)N(C)C)c2)c(-n2nc3ccccc3n2)c1 | 7 | -102 | 3 | x | x | 4171 | -0.5
CC(=O)Nc1ccc(NC(=O)CSc2ncc(C(=O)Nc3ccccc3)c(=O)n2C)cc1 | -7 | -22 | -4 | 3 | 16 | 8192 | 0.3
CC1CCN(S(=O)(=O)c2cccc(C(=O)Nc3nccs3)c2)CC1 | -3 | x | 2 | 12 | 12 | 10131 | 13

Additional compounds follow:
SMILES | BJeLR viability | PrP UTR inh | ugtP null kill | Mtb hypoxia inh | Mtb hypoxia inh growth | Bead autofluor | RN4220 kill
CSc1ccccc1NC(=O)C(C)N(C)CC(=O)N1CCN(Cc2ccccc2)CC1 (stereo unspecified) | x | 74* | 6 | 8 | -1 | u | 9.3
O=C(CSc1nnc(Nc2ccccc2F)s1)NC1CCS(=O)(=O)C1 (stereo unspecified) | x | 0 | 0 | 2 | -4 | 6299 | -0.7
COc1nnc(-c2ccc(N3CCOCC3)c(NC(C)=O)c2)c2ccccc12 | -4 | 8 | -7 | 3 | -1 | 6107 | 3.2
CC(OC(=O)c1ccc(Cl)cc1)C(=O)NCC1CCCCC1 (stereo unspecified) | x | -3 | 6 | 8 | -6 | 8836 | 3.0
O=C(O)Cn1cc(F)c(=O)[nH]c1=O | 6 | x | 5 | x | x | 4121 | 14
CC(C)C[C@@H](CN(C)N=O)N(C[C@H](Cc1ccccc1)N(CCc1ccccc1)N=O)N=O | -1 | -5 | x | x | x | 3803 | x
Cc1ccc(C2=NN(S(C)(=O)=O)C(c3cccs3)C2)cc1 (stereo unspecified) | 16 | -83 | 0 | 10 | 4 | u | 1.5
CCn1c(CCNC(=O)c2ccc(OC)c(OC)c2)nc2ccccc21 | -9 | -27 | 7 | 10 | 7 | 4085 | 2.0
CC1CCC(C(C)C)C2=C1C(C#N)(C#N)C(C#N)(C#N)C(c1ccccc1)N2 (stereo unspecified) | -4 | 5 | -15 | x | x | 2674 | -0.2
CC(C)C(NC(=O)c1ccccc1)c1nnc(SCC(=O)Nc2nccs2)n1C (stereo unspecified) | 5 | -25 | 3 | -2 | 1 | x | -1.3
COc1ccc(S(=O)(=O)N(C)CC(=O)N2CCC(C)CC2)cc1Cl | 0 | -7 | 2 | 6 | 6 | 10821 | 6.7
CCOC(=O)C1CCN(C(=O)c2ccc(OC3CCN(C(=O)COC)CC3)cc2)CC1 | 3 | -12 | 18 | 0 | -6 | 4511 | 6.1
CC(=O)c1cccc(NC(=O)Nc2ccc(C)cc2)c1 | -6 | -76 | -4 | 7 | 13 | 2534 | 3.3
Nc1ccccc1-c1ccc(Cl)cc1 | x | -20 | -5 | 3 | 6 | 3558 | 6.9
COC(=O)N1CC=CC(c2ccc(OC)cc2)N(Cc2ccc(F)cc2)C(=O)C1 (stereo unspecified) | x | x | 2 | 19 | 7 | x | 9.9
Nc1c(O)ccc2c1C(=O)c1ccccc1C2=O | 7 | x | 0 | 5 | -14 | x | 0.8
O=C(/C=C/c1ccccc1)N/C(=C\c1ccco1)C(=O)NCCO | 2 | -28 | 3 | 5 | 1 | 3626 | 3.7
C#CCOCCOCCOCCNc1nc(N2CCN(C(=O)Cn3cc(CCO)nn3)CC2)nc(N2CCN(C(=O)C(C(C)C)n3cc(CCO)nn3)CC2)n1 (stereo unspecified) | x | x | -2 | 17 | 7 | x | 2.7
CC(=O)NNc1cccc(Cl)n1 | 3 | -13 | 10 | x | x | 2952 | 1.7
CCOc1ccc(CN(C(=O)c2cccs2)C2CCS(=O)(=O)C2)cc1 (stereo unspecified) | 9 | -10 | 9 | 9 | 3 | 6311 | 4.4
COc1cc(C2=NOC(C(=O)Nc3cc(C)on3)C2)cc(OC)c1OC (stereo unspecified) | -11 | -12 | 2 | 10 | -1 | 4709 | 2.9
COc1cc2ccccc2cc1C(=O)Nc1ccc(Cl)cn1 | -4 | -54 | 2 | 6 | -2 | x | 4.0
COc1ccc(C(=O)N2CCN(c3ncccn3)CC2)cc1[N+](=O)[O-] | -7 | -7 | 18 | 7 | 2 | x | 3.9
O=C(COc1ccccc1[N+](=O)[O-])NCC1(N2CCCCC2)CCCCC1 | x | -17 | 2 | 10 | 3 | x | 0.3
